Assay outcomes as filed in PubChem.
VACV Venus inh – qHTS for Stage-Specific Inhibitors of Vaccinia Orthopoxvirus: Venus Reporter Primary qHTS | Vaccinia virus Venus reporter expression, fluorescence | Potency, µM (highest dose often 36.5 µM), inactives show top-dose activity change, negative = inhibition, most hits filed as inhibitors | 330,000 tested, 0.46% active | AID 720580, 2013; active means well fitted inhibition curve with a large enough effect; inconclusive means small, poorly fitted or top-dose-only effect; inactive means no such curve, though single readings can be large or run the other way; tested in A549 cells; further: nearly all actives have a fitted effect of over 30% in size; inactives centre near -10
VACV mCherry inh – qHTS for Stage-Specific Inhibitors of Vaccinia Orthopoxvirus: mCherry Reporter Primary qHTS | Potency, µM (doses to about 36.5 µM), inactives show at the highest dose activity change, negative = inhibition, hits mostly inhibitors | 310,000 tested, 0.63% active | Vaccinia virus mCherry reporter infection, fluorescence; about a quarter of the inactives have no number | AID 720579, 2013; active = well fitted inhibition curve with a large enough effect; inconclusive = small, poorly fitted or top-dose-only effect; inactive = no such curve, though single readings can be large or run the other way; tested in A549 cells; further: nearly all actives have a fitted effect of over 35% in size; inactives centre near -10
Starred values were filed as active, the others as inactive; i = inactive; ? = inconclusive; · = no result given; & = joins results of further samples; [ ] = another dose, or the depositor's remark. On the % scale 0 is the no-effect control and ±100 the full control effect; potency means the concentration at half of the fitted maximal effect.

Below each SMILES – VACV Venus inh | VACV mCherry inh
- Cc1ccc(OCC(=O)Nc2ccc(F)cc2)cc1C
    -5.4% | -16.1%
- CC(C)SCc1cc(N2CCCC2)nc(-c2ccccc2)n1
    -0.2% | -0.2%
- Cc1ccc(C(=O)NC(=S)N2CCN(c3ccc([N+](=O)[O-])cc3)CC2)cc1
    -24.3% | ?
- Cn1c(N2CCCC2)nc2c1c(=O)n(Cc1ccc(F)cc1)c(=O)n2C
    ? | -1.7%
- CC1(C)Cc2nc(N)c(C(=O)NCCO)cc2CO1
    10.8% | 8.6%
- CCNC(=O)c1cccc(NC(=O)c2cc(C3CC3)nc3c2cnn3C(C)C)c1
    -3.0% | -13.6%
- CC/C(=N\NC(=O)CSc1ncccn1)c1ccc2c(c1)OCCO2
    -7.4% | -17.5%
- Cn1c2ccccc2c2c(C(=O)NCC3CCCO3)cn(C3CCCC3)c(=O)c21 (stereo not given)
    -12.7% | -2.9%
- CC1CCCN(C(=O)C23CCC(C)(C(=O)C2)C3(C)C)C1 (stereo not given)
    -7.1% | -16.4%
- COc1ccc(Cl)cc1NC(=O)Cn1nc(Cc2ccncc2)c2ccccc2c1=O
    -23.4% | ?
- O=C(CN1CCN(Cc2ccc(F)cc2Cl)C1=O)NCCc1ccc(Cl)cc1
    10.4% | 0.2%
- CC(C)c1ccc(NC(=O)c2ccc3c(O)c(S(=O)(=O)c4ccccc4)c(=O)[nH]c3c2)cc1
    -10.7% | -12.2%
- C/C=C/C=C\C(=O)Nc1cccc(C2=NOC3(C2)C[C@@H](C(N)=O)N(C(=O)c2cc([N+](=O)[O-])cc([N+](=O)[O-])c2C)C3)c1 (stereo not given in full)
    -9.1% | -15.8%
- CCc1ccc(NC(=O)c2ccc3nc(C(C)C)oc3c2)cc1
    -19.6% | -16.1%
- O=C(NCc1ccc(Cl)cc1)c1ccc(NC(=O)N2CC3CCCN3c3ccccc32)cc1 (stereo not given)
    -16.3% | -4.9%
- CC(=O)OCC(=O)[C@@]1(O)CCC2C3CC(C)C4=CC(=O)C=CC4(C)C3C(O)CC21C (stereo not given in full)
    -11.9% | -15.8%
- CCOC(=O)C1(CCOc2ccccc2)CCN(C(=O)c2cncs2)CC1
    -3.9% | i
- O=C(O)C(CCc1ccccn1)c1ccccc1 (stereo not given)
    -2.1% | i
- Cc1ccc(Cl)cc1N1CCN(C(=O)c2cn(C)c3ccc(S(=O)(=O)N4CCCCC4)cc3c2=O)CC1
    11.3% | -6.0%
- COc1cc(CCNc2ccc3nnc(-c4ccccc4)n3n2)cc(OC)c1OC
    ? | -5.5%
- Cc1ccccc1-n1c(-c2ccc([N+](=O)[O-])cc2)nc2ccccc2c1=O
    2.9% | ?
- CCN1CCN(CCCNC(=O)c2cc3c(=O)[nH]c4ccccc4c3s2)CC1
    -14.4% | -14.0%
- O=C(/C=C/c1ccco1)NC(=S)Nc1cccc(-c2nc3ccccc3s2)c1
    ? | -22.9%
- CN(c1ccc(OCC(=O)N2CCOCC2)cc1)S(=O)(=O)c1ccc(Cl)cc1
    -10.5% | -16.4%
- CS(=O)(=O)c1ccc(C(=O)Nc2nc(-c3ccco3)c(-c3ccco3)s2)cc1
    -7.1% | -16.0%
- C[C@@H]1CN([C@H](C)CO)C(=O)CCCn2nncc2CO[C@H]1CN(C)Cc1cccc(C(F)(F)F)c1
    -18.0% | i
- Cc1ccc(NC(=O)Cn2c(=O)n(CCCCC(=O)NCc3ccccc3Cl)c(=O)c3ccccc32)cc1C
    -22.3% | -28.2%
- CCC/C(C)=N/NC(=O)c1ccccc1O
    0.9% | -12.6%
- COc1ccc(NC(=O)Cn2nnc(-c3ccccc3NC(=O)C3CC3)n2)cc1
    ? | ·
- O=C(c1cnn(-c2ccccc2)c1)c1ccccc1O
    -3.2% | -2.5%

Below each SMILES – VACV Venus inh | VACV mCherry inh
- CC(CCc1ccco1)NC(=O)CSc1cc(=O)n(C)c2ccccc12 (stereo not given)
    -14.6% | ?
- CC(c1ccc(Cl)cc1)n1c(-c2ccc3ccccc3n2)n[nH]c1=S (stereo not given)
    -6.1% | -12.8%
- CCOC(=O)CSC1=C(C#N)C(c2ccccc2F)C(C(C)=O)=C(C)N1 (stereo not given)
    -7.5% | -8.4%
- O=S(=O)(c1ccccc1Br)N1CCN(c2nc(-c3ccccc3)nc3ccccc23)CC1
    -6.6% | -12.9%
- COc1ccc(-c2ccc(C(=O)N3CCOCC3)c3occc23)c(C)c1
    -8.5% | 30.6%[activator]
- COc1ccc(N2C(=O)CC(c3ccc(OC(C)C)cc3)C2=O)cc1 (stereo not given)
    -7.8% | -1.7%
- COc1ccc(CCNC(=O)Cc2c(Cl)cccc2Cl)cc1
    4.8% | -3.1%
- COc1cc(Cl)c(NC(=O)C2CCN(S(=O)(=O)c3c(C)noc3/C=C/c3ccccc3F)CC2)c(OC)c1
    -8.4%[7.34 µM] | -14.1%[7.34 µM]
- O=C(CSc1nc2ccccc2s1)N1c2ccccc2Sc2ccc(C(F)(F)F)cc21
    -23.1% | -9.8%
- COc1ccc(C(=O)O)cc1NCc1cccnc1
    -6.5% | -12.4%
- Brc1ccsc1/C=N/Nc1ccccc1
    -5.4% | -17.0%
- N#Cc1cc2c(nc1SCC(=O)Nc1cccc(F)c1)C1CCN2CC1
    -7.4% | -5.7%
- O=C(CSc1nncs1)Nc1ccc2c(c1)OCO2
    -10.1% | -22.7%
- S=C(Nc1cccc(Cl)c1)NC1CC2CCCC(C1)N2C1CCCC1 (stereo not given)
    -19.9% | -1.0%
- [O-]/[N+](=C/c1ccccc1)c1ccccc1
    -2.7% | i
- Cc1cccc(C)c1NC(=O)C(CCc1ccccc1)N1CCN(C)CC1 (stereo not given)
    -17.0% | -2.8%
- O=C(NC1CCCCC1)N1CCSC1=Nc1ccccc1
    -14.9% | -21.3%
- NS(=O)(=O)c1ccc(CCNc2ccc(C(F)(F)F)cn2)cc1
    -4.4% | -5.7%
- CCc1ccc(OCCNC(=O)c2ccccc2SCc2ccccc2)cc1
    4.6% | ?
- C=CCn1c(O)c(C2=c3ccccc3=NC2=O)s/c1=N/c1nccs1
    -15.5% | i
- CCN(CC)CCn1c2ccccc2c2cnc(N)c(C#N)c21
    ? | ?
- COc1ccc(N2CCN(S(=O)(=O)CCNC(=O)C3CC3)CC2)cc1
    -12.3% | i
- Cc1ccc(S(=O)(=O)N2CCOCC2)cc1NC(=O)COC(=O)c1cccnc1Cl
    -1.1% | -0.6%
- Cc1cc(C)cc(OCC(=O)OCCN2C(=O)c3ccccc3C2=O)c1
    -14.1% | ·
- COc1ccc(CCC(=O)NNC(=S)Nc2cccc(C(C)=O)c2)cc1
    -15.8% | -14.1%
- CSCC[C@H](NC(=O)OC(C)(C)C)C(=O)NCC1CCC(C(=O)O)CC1 (stereo not given in full)
    -4.3% | -11.0%
- COC(=O)Cc1cc(=O)n(-c2ccccc2)[nH]1
    -16.8% | -17.0%
- CCOc1ccc(C(=O)n2cc(C(=O)OC)c3ccccc32)cc1
    -18.7% | -15.0%
- COc1ccc(C(=O)NCC(=O)OCC(=O)c2ccc3c(c2)NC(=O)CO3)cc1
    6.2% | i
- CCCN(CCC)S(=O)(=O)c1ccc(C(=O)N2CCN(C)CC2)cc1
    -10.7% | i

Below each SMILES – VACV Venus inh | VACV mCherry inh
- CCOC(=O)c1[nH]cnc1C(=O)Nc1cccc(Cl)c1
    -7.3% | -19.0%
- C/C(=N\OCC(=O)N/N=C/c1ccccc1)c1cccs1
    -14.3% | -10.0%
- CC1(C(=O)NS(=O)(=O)C2CC2)CCN(C(=O)CSc2ccccc2)C1 (stereo not given)
    11.4% | -11.7%
- Cc1ccc(S(=O)(=O)NCc2ccccc2)cc1C(=O)NCC1CCCO1 (stereo not given)
    -16.7% | -22.3%
- CC1=NN(c2cccc(F)c2)C(=O)/C1=C/c1ccc(N(C)C)cc1
    -7.3% | -7.7%
- Cc1ccc(Nc2nnc(SC(C)C(=O)NCC3CCCO3)s2)cc1 (stereo not given)
    -12.5% | -19.9%
- CCCOc1ccc(CNC(=O)C(CC)n2nc(C)c3sc4ccccc4c3c2=O)cc1 (stereo not given)
    -10.9% | -14.2%
- O=C(/C=C/Nc1ccccc1Oc1ccccc1)c1ccco1
    -6.1% | -7.4%
- COc1cc(Nc2ncc3c(n2)CCN(Cc2cc(F)cc(F)c2)C3)cc(OC)c1
    -11.4% | -24.2%
- Cc1ccc(NC(=O)CSc2nc3sc(C)cc3c(=O)n2C)cc1
    -14.6% | -9.7%
- Cc1ccc2nc(SCC(=O)Nc3c(C)n(C)n(-c4ccccc4)c3=O)[nH]c2c1
    -26.9% | i
- Cc1ccc(-c2csc(=Nc3ccccc3)n2CCCO)cc1
    -12.9% | -17.5%
- COc1cc2c(cc1OC)C(COc1ccccc1OC)N(C(=O)c1ccco1)CC2 (stereo not given)
    -19.2% | -20.3%
- COCCCn1cnc2c(c1=O)c1nc3ccccc3nc1n2-c1ccc(C)cc1
    -24.1% | ·
- CC(C)(C)OC(=O)NNC(=S)NCc1ccc(Cl)cc1
    -16.3% | ·
- CC(=O)OC(C)(C)C1Cc2cc3ccc(=O)oc3cc2O1 (stereo not given)
    4.6% | -4.8%
- Cc1ccc(CNS(=O)(=O)c2ccc(C(C)(C)C)cc2)n1C
    -1.4% | -15.6%
- CS(=O)(=O)c1ccc(Cl)c(NC(=O)COC(=O)c2ncc(Cl)c(Cl)c2Cl)c1
    -14.1% | -3.5%
- CC1(C)CCC(=O)c2ccccc21
    -17.5% | i
- Cc1c(O)ccc2c3c(c(=O)oc12)CCC(C)C3 (stereo not given)
    ? | ·
- CCN(Cc1ccncc1)C(=O)C1CCC(=O)N(Cc2ccc(Cl)cc2)C1 (stereo not given)
    -17.2% | -20.3%
- CC1=C(C(=O)N(C)C)CC(CC(=O)NCC2CCCCC2)C(=O)N1CCCN1CCCC1=O (stereo not given)
    -5.3% | -7.9%
- C=CCN(C(=O)CCC(=O)O)C1CC(=O)N(c2ccc(OCCC)cc2)C1=O (stereo not given)
    -6.6% | -12.7%
- c1ccc(C(Nc2cccnc2)c2ccccc2)cc1
    -15.9% | i
- Cc1[nH]c(=O)[nH]c(=O)c1S(=O)(=O)N1CCCC(C(=O)NCc2ccc3c(c2)OCO3)C1 (stereo not given)
    -7.3% | -2.1%
- Cn1c(=O)[nH]c(=O)c2c1nc(Br)n2Cc1ccccc1Cl
    -19.4% | ?
- COc1ccc(CCNC(=O)Cn2c(=O)c3cccn3c3ccc(F)cc32)cc1OC
    -6.0% | -10.0%
- O=C(NCCSc1c(-c2ccccc2)[nH]c2ccccc12)c1cc2ccccc2oc1=O
    -18.0% | -22.0%
- CNC(=O)c1ccc(NC(=O)C2CCN(c3ncnc4sc(C)c(C)c34)CC2)cc1
    -11.9% | i
- CCOc1ccc(C)cc1S(=O)(=O)n1ccnc1
    -4.6% | -16.1%

Below each SMILES – VACV Venus inh | VACV mCherry inh
- CCN(CC)CCN1C(=O)C2C(C(=O)Nc3ccc(Br)cc3)C3C=CC2(O3)C1C(=O)NC1CCCCC1 (stereo not given)
    -9.3% | i
- Cc1ccc(Cl)cc1NC(=O)N(Cc1ccc2c(c1)OCO2)C1CCN(Cc2ccccc2)CC1
    ? | ?
- Cc1cccc2sc(NC(=O)c3cccc(S(=O)(=O)N4CCc5ccccc54)c3)nc12
    -3.5% | -11.4%
- C/C(CC(=O)Nc1ccc2c(c1)OCO2)=N\NC(=O)OC(C)(C)C
    -6.8% | -7.7%
- Cc1ccccc1CN1c2ccccc2-c2nc(SCC(=O)Nc3cc(F)ccc3F)ncc2S1(=O)=O
    15.0% | -4.3%
- COc1ccc(/C=C2\CCCC3C2=NC(=S)NC3c2ccc(OC)cc2)cc1 (stereo not given)
    -5.8% | -4.9%
- COc1ccc(C(=O)N/N=C/c2ccc(OC(=O)c3ccccc3)cc2)cc1
    -4.9% | -8.4%
- Cc1c(C=O)c2ccccc2n1CC(=O)NCc1ccccc1
    -7.3% | -11.1%
- CC1CCC(NC(=O)N(CCCl)N=O)CC1 (stereo not given)
    -24.9%&-15.7% | -8.1%&-20.9%
- COc1ccc(-c2cc(-c3ccc(OC)c(OC)c3)n[nH]2)c(O)c1
    -26.5% | ?

Some of these compounds in order of number of heavy atoms, falling:
Below each SMILES – VACV Venus inh | VACV mCherry inh
- CCc1ccc(OCCNC(=O)c2ccccc2SCc2ccccc2)cc1
    4.6% | ?
- Cc1ccccc1-n1c(-c2ccc([N+](=O)[O-])cc2)nc2ccccc2c1=O
    2.9% | ?
- CCOC(=O)c1[nH]cnc1C(=O)Nc1cccc(Cl)c1
    -7.3% | -19.0%

Some of the entries above in another layout.
structure,VACV Venus inh,VACV mCherry inh
C/C(CC(=O)Nc1ccc2c(c1)OCO2)=N\NC(=O)OC(C)(C)C,-6.8%,-7.7%
Cc1ccccc1CN1c2ccccc2-c2nc(SCC(=O)Nc3cc(F)ccc3F)ncc2S1(=O)=O,15.0%,-4.3%
COc1ccc(/C=C2\CCCC3C2=NC(=S)NC3c2ccc(OC)cc2)cc1 (stereo not given),-5.8%,-4.9%
COc1ccc(C(=O)N/N=C/c2ccc(OC(=O)c3ccccc3)cc2)cc1,-4.9%,-8.4%
Cc1c(C=O)c2ccccc2n1CC(=O)NCc1ccccc1,-7.3%,-11.1%
CC1CCC(NC(=O)N(CCCl)N=O)CC1 (stereo not given),-24.9%&-15.7%,-8.1%&-20.9%
COc1ccc(-c2cc(-c3ccc(OC)c(OC)c3)n[nH]2)c(O)c1,-26.5%,?
